Source: PubChem BioAssay
TRPML1 blocker: human mucolipin-1 channel inhibition; Q9GZU1; activity change, negative = inhibition, % (test concentration not listed); TRPML1-inducible cells, Ca2+ dye fluorescence, FDSS; stronger effect = lower value; inhibition of EC80 agonist-evoked calcium signal; 390,000 tested, 0.02% active; in the data active means activity change below about -50%; inconclusive means about -30% to -50%; inactive means above about -30%;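 also: stimulus is agonist 54-4 at its EC80 concentration; % is scaled to controls: 0 for no effect and ±100 for the full control effect; compound concentration not given in the record; the text of the record puts the active cut at -80%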
Target sequence (Q9GZU1 whole entry, looked up): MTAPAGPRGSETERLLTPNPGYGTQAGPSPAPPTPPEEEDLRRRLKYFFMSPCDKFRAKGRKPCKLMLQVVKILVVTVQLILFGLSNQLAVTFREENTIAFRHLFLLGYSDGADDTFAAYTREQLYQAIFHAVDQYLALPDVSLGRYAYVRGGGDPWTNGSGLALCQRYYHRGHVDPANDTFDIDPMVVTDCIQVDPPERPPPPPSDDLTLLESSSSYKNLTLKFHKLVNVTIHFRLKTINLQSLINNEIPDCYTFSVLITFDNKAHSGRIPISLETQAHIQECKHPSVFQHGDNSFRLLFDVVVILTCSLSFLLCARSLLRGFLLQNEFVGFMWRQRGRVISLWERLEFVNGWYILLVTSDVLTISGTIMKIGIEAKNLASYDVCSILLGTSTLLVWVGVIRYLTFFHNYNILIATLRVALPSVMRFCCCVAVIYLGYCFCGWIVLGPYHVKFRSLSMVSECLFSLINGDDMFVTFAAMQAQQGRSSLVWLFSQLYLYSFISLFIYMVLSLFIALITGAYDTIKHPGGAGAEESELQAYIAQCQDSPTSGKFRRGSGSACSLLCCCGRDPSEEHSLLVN
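Calcium fluorescence in TRPML1-DL cells induced overnight with Tet: a 110 s read after compound pin addition, then a 110 s antagonist read after challenge with 54-4 at 4 uM final (EC80).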
ClpP mod: qHTS Assay for Activators of ClpP; ATP-dependent Clp protease proteolytic subunit (Bacillus subtilis (strain 168)), P80244; purified B. subtilis ClpP, FRET peptide cleavage, 20 min; Potency, µM (series often up to 57.5 µM), for the others: at the top dose activity change, negative = active; 340,000 tested, 1.9% active; AID 651965, 2013; active = well fitted falling curve with a large enough effect; inconclusive = small, poorly fitted or top-dose-only effect; inactive = no such curve, though single readings can be large or run the other way; also: potency is read from the fitted curve at half-maximal effect; the source files actives as falling curves though it sought activators and does not explain the sign; nearly all actives have a fitted effect of over 65% in size; many hits overshoot -100%
Target sequence (P80244 whole entry, looked up): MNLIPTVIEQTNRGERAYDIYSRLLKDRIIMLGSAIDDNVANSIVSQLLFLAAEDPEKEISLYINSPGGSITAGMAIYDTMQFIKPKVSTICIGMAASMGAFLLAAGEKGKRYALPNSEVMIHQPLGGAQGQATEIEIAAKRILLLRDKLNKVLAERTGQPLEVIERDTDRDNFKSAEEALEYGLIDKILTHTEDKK
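Buffer: 100 mM Tris/HCl pH8, 100 mM KCl, 0.05% low protease BSA, 2.5% glycerol, 0.01% Tween-20. ClpP 10 microg/mL final; 20 min RT; delta FRET normalized to ADEP and DMSO controls.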
Sfp PPTase inh: Sfp phosphopantetheinyl transferase inhibition | Q9F4F7 | Biochemical Sfp PPTase activity, qHTS | Potency, µM, inactives show max response, negative = inhibition, usual class: inhibitors | 310,000 tested, 3.5% active; active = well fitted inhibition curve with a large enough effect; inconclusive = small, poorly fitted or top-dose-only effect, or another doubt; inactive = no such curve, though single readings can be large or run the other way;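 also: the enzyme is Sfp with the accession as filed and its product quenches rhodamine fluorescence; potency is read from the fitted curve at half-maximal effect; 0% = enzyme reaction without inhibitor and -100% = no enzyme wells; top concentration of the series not given in the record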
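Buffer: 50 mM Hepes-Na pH 7.6, 10 mM MgCl2, 0.01% Nonidet P-40, 0.01% BSA. Enzyme 15 nM, pre-exposed to compound 15 min; substrates then added and fluorescence change tracked over 30 min.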
PINK1 expr mod: modulators of PINK1 expression | PINK1 immunofluorescence, high-content cytometry, 24 h | Potency, µM (doses to about 76.6 µM), without a hit: top-dose activation (PINK1 increase), actives largely listed as activators | 410,000 tested, 0.2% active | AID 624263; active = well fitted activation curve with a large enough effect; inconclusive = small, poorly fitted or top-dose-only effect; inactive = flat fitted curve, though single readings scatter; cell line not stated here;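 also: potency is read from the fitted curve at half-maximal effect; % of control where 0% means no effect; nearly all actives have a fitted effect of over 65% in size; a mitochondrial uncoupler was the plate control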
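PINK1 protein level read as immunofluorescence by microplate cytometer in a fixed, stained stable cell line after 24 h exposure to five compound concentrations, with CCCP as control.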
Menin MLL FP FL: menin-MLL binding inhibition, fluorescein peptide. 290,000 tested, under 10 active. Fluorescence polarization, fluorescein-MLL peptide displacement from menin. FP activity change, % at 61.4 µM; inconclusive = falling polarisation curve, or a change in total fluorescence; inactive = total fluorescence flat and polarisation flat or rising; no compound was filed as active; the % refers to the polarisation; negative = inhibition;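 also: % of control where 0% means no effect; inhibitors lower the polarisation; unlabelled MLL peptide was the positive control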
TRPML1 agonist: activates the human TRPML1 channel. TRPML1-expressing cells, Ca2+ dye fluorescence, FDSS; host cell line not named in the record; reference of the full effect not given here. activation, % (no concentration beside the values). AID 624414. 410,000 tested, 0.12% active; in the data active = activation above about 50%; inconclusive = about 30% to 50%; inactive = below about 30%; also: 0% is about no effect; the text of the record puts the active cut at 80%
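Tetracycline-induced TRPML1-DL cells are seeded and incubated overnight before loading with a no-wash Ca2+ dye and quencher. Agonist activity is taken from the 110 s fluorescence read following compound pin-transfer on an FDSS, before EC80 54-4 challenge.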
TRPV1 potentiator: human TRPV1 potentiation; Q8NER1; TRPV1-expressing cells, Fluo-8 calcium influx, capsaicin EC20 potentiation; host cell line not named in the record; control for the full effect not named in the record; potentiation, % at 8.33 µM; 320,000 tested, 0.02% active; active means potentiation above 80%; inconclusive means 30% to 80%; inactive means below 30%; also: 0% is about no effect
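Cells expressing TRPV1 were dye-loaded with Fluo-8 and read kinetically: 10 s baseline, 3 min after compound (agonist portion), then 2 min after EC20 capsaicin (allosteric enhancer portion). Calcium-bound dye fluorescence at 480/520 nm.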
An asterisk follows results filed as active; ? = inconclusive; . = not tested or not shown; & = joins results of further samples; [ ] = another dose, or the depositor's remark.

Compound	TRPML1 blocker	ClpP mod	Sfp PPTase inh	PINK1 expr mod	Menin MLL FP FL	TRPML1 agonist	TRPV1 potentiator
Clc1cccc(Cc2c(C3CCCCC3)nc3ccc(Br)cn23)c1	.	-4.0%	.	3.9%	.	0.2	.
COc1ccc(CNC(=O)CCNS(=O)(=O)c2cc(Br)cnc2N)cc1	-8.2	-17.8%	4.1%	-1.5%	.	0.3	0.5
FC(F)(F)c1ccccc1Cc1c(-c2cccc(Br)c2)nc2ccc(Cl)cn12	-2.1	?	.	19.4%	.	-0.3	.
CC(C)CCNC(=O)c1cc2c(s1)-c1ccccc1S(=O)(=O)C2	-7.8	.	10.1%	-0.6%	?	0.1	-21.3
O=C(C1CCCO1)N1CCN(c2ccccn2)CC1 (centres undefined)	-17.0	4.9%	10.1%	0.0%	-1.5	-0.6	0.4
COc1ccc(Br)cc1S(=O)(=O)N1CCCC1	29.9	0.2%	2.4%	0.1%	-4.8	-0.9	-28.2
Cc1ccc(NC(=O)N2CCCc3ccccc32)cc1C	13.3	-0.5%	-12.0%	-0.3%	-2.3	0.8	-4.3
Cn1nnnc1SC(C(=O)Nc1ccc(F)cc1)c1ccccc1 (centres undefined)	-3.3	.	4.6%	2.0%	-2.1	0.9	3.9
COc1ncc2nc(-c3ccc(F)cc3)c(=O)n(C[C@H]3CCCO3)c2n1	.	.	7.9%	0.0%	0.2	.	.
CCOC(=O)C1=C(N)OC2=C(C(=O)CC(C)(C)C2)C1c1cccnc1 (centres undefined)	-2.5	-0.5%	6.1%	0.5%	3.7	-0.3	-5.3
O=C(c1ccccc1)N1CCN(c2ccc(Cl)cc2)CC1	5.1	-0.8%	-0.5%	-3.2%[38.3 µM]	0.9	-0.2	3.6
CC(=O)N(C)c1ccc(NC(=O)Nc2ccc(Cl)cc2)cc1	12.4	2.8%	.	2.1%	.	3.1	.
Cn1c(=O)c(-c2ccccc2N)nc2ccccc21	-24.7	-1.6%	21.8%	1.5%[38.3 µM]	6.5	-0.4	3.2
CN(C)c1ccc(CNC(=O)C2Cc3c(-c4ccccc4Oc4ccccc4)ccnc3O2)cc1 (centres undefined)	31.7	?	.	0.1%	.	0.6	.
CCNc1ccc(S(N)(=O)=O)cc1[N+](=O)[O-]	-6.7	1.2%	4.3%	-0.4%	1.7	0.3	-2.8
CSc1nc(-c2ccccc2)nc(N)c1C(C)=O	.	.	-7.2%	.	3.5	.	8.4
CCC1=C2CC[C@H]3C(=O)N(C)C(=O)[C@H]3[C@H]2[C@@]2(Cc3ccccc3)C(=NCC(=O)OC)OC(=O)N2C1=O	-6.8	-0.5%	18.7%&7.5%	5.1%	-8.0&-2.7	-0.7	-18.2
CC(=O)N(CCC(c1ccco1)C(C)C)Cc1ccc(OC(C)C)cc1 (centres undefined)	33.2	-0.4%	-3.2%	4.0%	4.7	7.5	-9.2
CC1(C)CNc2cc([N+](=O)[O-])ccc2S1	-13.2	.	-14.3%	3.3%	1.1	27.9	-1.6
O=C(NCCNC(=O)c1cc(F)cc(F)c1)c1cc(F)cc(F)c1	13.0	.	-2.0%	7.8%	4.5	0.0	-34.1
Cc1noc(/C=C/c2ccco2)c1S(=O)(=O)N1CCC(C(=O)Nc2ccc(F)cc2F)CC1	11.9	-7.1%	.	10.1%	.	1.5	.
COCCN(C(=O)COC(=O)c1ccccc1NCc1ccco1)c1c(N)n(Cc2ccccc2)c(=O)[nH]c1=O	21.4	-3.4%	.	2.8%	.	5.8	-8.7
CCOC(=O)c1c(N/C=C(\C#N)c2nc(-c3ccc(OC(C)=O)cc3)cs2)sc2c1CCC2	-7.0	-0.6%	.	-0.1%	.	0.6	.
CC(=O)c1c(C)[nH]c(C(=O)CSc2nnc(-c3ccco3)o2)c1C	3.9	.	9.0%	12.2%	8.6	-0.2	4.1
Cc1ccc(NC(=O)CSc2nnc(-c3cccnc3)s2)cc1	-6.0	0.5%	-4.3%	11.4%	0.9	-0.8	-7.8
COc1ccc2c(C)cc(Sc3nnnn3-c3ccccc3)nc2c1	26.2	?	-2.5%	-0.1%	-1.0	2.5	-3.5
COCCCNC(=S)NNC(=S)Nc1cccc(Cl)c1	29.1	-1.4%	22.4µM*	3.6%	-0.3	2.0	5.5
COc1ccc(Oc2nc3c(c(=O)n(C)c(=O)n3C)n2Cc2cccc(OC)c2)cc1	-5.6	-5.6%	6.0%	4.9%	-0.1	0.6	3.1
Cc1ccc(S(=O)(=O)NC(=O)c2cccc(C)c2)cc1	1.6	1.9%	6.5%	-0.6%	.	-0.7	13.9
CC(=O)n1cc([C@H]2C=C(C(N)=O)O[C@@H](OCc3ccc(CO)cc3)C2)c2ccccc21	-8.6	-3.2%	.	-0.1%	.	7.8	.
Cc1cc(C)cc(NC(=O)Cn2nnc(C(=O)Nc3cc(C)cc(C)c3)c2N)c1	-13.9	73.2%	.	6.0%	.	-0.4	.
CCOc1ccc(-c2nonc2NC(=O)c2oc3c(C)c(C)ccc3c2C)cc1OCC	70.6	-5.8%	.	1.3%	.	2.1	.
Cn1cc([N+](=O)[O-])c(C(=O)NCc2cc3ccccc3[nH]2)n1	31.9	-0.9%	-4.1%	0.3%	1.0	-0.4	2.1
Cc1ccc(NS(=O)(=O)c2ccc(C(=O)N3CCCN(C)CC3)cc2)cc1	-5.5	-2.5%	5.8%	-1.7%	-1.5	0.2	-0.5
Cc1ccc(OCCC(=O)OCC(=O)NC(=O)NC2CCCCC2)cc1	-1.4	-2.5%	.	6.3%	.	0.5	-8.7
CCC(=O)N1c2ccccc2CC1C(=O)N1CCN(c2cccc(Cl)c2)CC1 (centres undefined)	-5.3	-3.0%	.	1.6%	.	0.7	.
CC(=O)NCCNc1ncnc2ccc(-c3cccc(NS(C)(=O)=O)c3)cc12	.	.	30.6%[activator]	0.7%	-1.3	.	.
N#CC(C#N)=C1C=CC=CN1/C(=C\c1ccco1)C(=O)c1ccc(-c2ccccc2)cc1	-13.5	1.4%	9.6%	-1.6%	13.3	1.4	-7.8
COc1ccc(C(=O)N/C(=C/c2cccs2)C(=O)NCCCn2ccnc2)cc1OC	-0.7	0.1%	19.8%	4.6%[38.3 µM]	4.2	0.0	6.6
Cc1ccc2c(c1C)C(=O)C(=O)N2	-2.1	-0.2%	.	-1.2%	.	-0.2	.
COc1ccc(NC(=O)c2cccc([N+](=O)[O-])c2)cc1	3.4	.	-5.0%	1.0%	-0.1	2.1	?
NC(=O)NC(=O)CSc1nc2cc([N+](=O)[O-])ccc2n1-c1cccc(C(F)(F)F)c1	15.2	-1.8%	2.9%	0.8%	7.7	0.1	-10.8
COc1ccc(/C=C\C(=O)Oc2cccc(/C=N/NC(=O)Cc3ccc(OC)c(OC)c3)c2)cc1	5.8	-9.8%	2.2%	3.1%	5.5	0.6	3.7
COc1cccc(-c2sc3ccc(OC)cc3c2C#CCC(C)O)c1 (centres undefined)	16.7	4.1%	.	0.1%	.	0.2	-13.2
COc1ccccc1NS(=O)(=O)c1ccc(C(=O)NCC(c2ccccc2OC)N(C)C)cc1 (centres undefined)	13.7	-1.2%	15.9%	-0.2%	.	-0.1	-12.6
CC(=O)c1cccc(NC(=O)Nc2nc(C)cc(C)n2)c1	4.1	-0.7%	-9.2%	-1.1%	.	0.2	13.2
CCN(CC)CCC(c1ccc(N(C)C)cc1)c1c(OC)cc(OC)c2c(-c3ccccc3)cc(=O)oc12 (centres undefined)	9.8&26.8	-3.1%	56.2µM*	-0.5%	3.7&4.9	0.0&-0.2	-28.5
COc1ccc(OC)c(NC(=O)c2cccnc2Sc2cc(C)ccc2C)c1	-7.6	-3.9%	-5.2%	0.9%	5.9	1.8	-5.5
CCCNC(=O)c1cc(C2CCCCN2C(=O)c2ccc3c(c2)CCO3)on1 (centres undefined)	.	0.3%	.	0.0%	.	-0.7	.
Cc1ccccc1-c1cc(NCc2cccnc2)ncn1	.	.	5.3%	-0.4%	1.8	.	.
Cc1cccc(-n2c(Cc3cc(=O)[nH]c(=O)[nH]3)nnc2SCC(=O)NCC2CCCO2)c1 (centres undefined)	-16.1	0.6%	5.8%	-3.0%	-2.4	2.3	.
CSc1ccc(CN2CCCC(CNC(=O)c3ccc(F)cc3)C2)cc1 (centres undefined)	-1.2	.	11.6%	2.8%	0.3	-0.3	3.8
CSc1cccc(NC(=O)CN(c2cc(C)ccc2C)S(C)(=O)=O)c1	-6.3	1.4%	2.0%	1.2%	2.6	4.9	-6.0
Clc1nc(-c2ccccc2)c2ccccc2n1	2.6	.	6.1%	0.5%	-7.3	-0.5	1.9
CCCc1ccc2oc(C(=O)N(C)Cc3cnccn3)c(C)c2c1	17.0	-1.5%	-14.6%	1.0%	.	1.0	21.4
CCOc1ccccc1NC(=O)CSc1nnc2c(CC)c(C)nc(N)n12	6.9	0.9%	13.8%	-0.7%[38.3 µM]	-0.4	-0.3	4.8
Cc1ccc(S(=O)(=O)NN2C(=O)c3ccccc3NC2c2ccccn2)cc1 (centres undefined)	-2.0	.	3.5%	-1.9%	-3.1	1.5	-27.7
Cc1cc(C)c(C2=CSC3=NS(=O)(=O)CCN23)c(C)c1	7.5	.	18.6%	-1.1%	-4.6	0.4	-2.6
CC(Oc1ccccc1Cl)C(=O)N(Cc1ccco1)C1CCS(=O)(=O)C1 (centres undefined)	-12.0	0.3%	15.9%	.	0.1	-0.2	0.3
CC(C)NC(=O)Nc1cccc2c1O[C@H](CN(C)S(=O)(=O)c1cccs1)[C@@H](C)CN([C@H](C)CO)C2=O	-17.3	-3.5%	.	0.6%	.	-0.7	.

(list continues)
Compound	TRPML1 blocker	ClpP mod	Sfp PPTase inh	PINK1 expr mod	Menin MLL FP FL	TRPML1 agonist	TRPV1 potentiator
CCc1ccc(C(=O)NC2=NC(c3cc(OC)ccc3OC)CC(=O)N2)cc1 (centres undefined)	-13.6	0.1%	.	2.0%	.	0.7	.
COc1ccc(OC)c(/C=C/C(=O)OCC(=O)N2CCCCC2)c1	8.0	.	.	0.1%	.	-0.7	.
O=C(Nc1ccc2c(c1)OCCO2)C1c2ccccc2OCC(=O)N1Cc1ccccn1 (centres undefined)	.	-5.6%	.	0.0%	.	-0.4	.
O=C(Nc1cccc(Cl)c1)OCCN1CCN(Cc2ccccc2)CCC1=O	-8.2	0.8%	1.3%&-2.4%	3.6%	-1.0&-0.6	-0.7	-12.6
Cc1nn(C)c(C(=O)N/N=C/c2cc3c(cc2Br)OCO3)c1Br	-9.3	-6.9%	2.6%	23.2%	-1.4	1.1	-8.6
